# Source: PubChem (National Center for Advancing Translational Sciences (NCATS))
# HPGD block = inhibitors of human 15-hydroxyprostaglandin dehydrogenase (HPGD); P15428; purified HPGD, NADH fluorescence kinetic, PGE2 substrate; Potency, µM, for inactives: top-dose activity change, negative = inhibition, actives largely listed as inhibitors; 150,000 compounds, 4.3% hits; active = well fitted inhibition curve with a large enough effect (not every such curve was filed as active); inconclusive = small, poorly fitted or top-dose-only effect, or another doubt; inactive = no such curve, though single readings can be large or run the other way;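 further: top concentration of the series not given in the record; plate controls included wells without enzyme; inactives centre near -10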
# Target sequence (P15428 whole entry, looked up): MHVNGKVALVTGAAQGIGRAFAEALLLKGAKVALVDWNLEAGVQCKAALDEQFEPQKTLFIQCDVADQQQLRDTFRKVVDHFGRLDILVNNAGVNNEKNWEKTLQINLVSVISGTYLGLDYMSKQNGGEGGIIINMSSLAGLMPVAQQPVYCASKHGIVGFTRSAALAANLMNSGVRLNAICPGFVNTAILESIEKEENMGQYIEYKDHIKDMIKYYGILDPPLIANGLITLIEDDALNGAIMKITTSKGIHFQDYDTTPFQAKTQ
#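 NADH formation kinetics: reaction with 30 uM PGE2 and 1 mM NAD+ (final), 20 nM enzyme, Tris-HCl pH 8 with Tween 20, after 15 min compound preincubation at room temperature. Fluorescence change, last versus first of five reads.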
# Starred values were filed as active, the others as inactive; ? = inconclusive; & = joins results of further samples. On the % scale 0 is the no-effect control and ±100 the full control effect; potency means the concentration at half of the fitted maximal effect. An excerpt; rates above refer to the full screens.
cpd	mol	HPGD block
1	C/C(=N\NC(=O)CNc1ccccc1Cl)C(C)(C)C	-4%
2	CSc1nc(-c2ccco2)nn1C(=O)c1ccc(C)cc1	?
3	COc1cc(C)c(S(=O)(=O)Nc2ccccc2F)cc1C	-1%
4	Cc1ccc(CC(=O)N2CC(C)OC(C)C2)cc1 (configuration not stated)	?
5	Cc1ccc(S(=O)(=O)NCCCCCC(=O)Nc2ccccn2)cc1	-3%
6	CCc1c(C)nc(N2CCN(Cc3ccccc3)CC2)[nH]c1=O	-6%
7	O=S(=O)(NC1CCCC1)c1ccc(S(=O)(=O)N2CCCN(Cc3ccccc3)C2)cc1	-7%
8	COc1ccc(S(=O)(=O)NCCc2cn3cccc(C)c3n2)cc1OC	-6%
9	CCCOc1ccc(-c2nc(C#N)c(N3CCN(C)CC3)o2)cc1	?
10	CCC(C)NC(=O)C1(C)CCC(=O)N1CCc1ccc(OC)c(OC)c1 (configuration not stated)	3%
11	Cc1cccc(C)c1OC(=O)CSc1nnc(-c2ccccc2O)o1	?
12	COc1ccc(CNC(=O)C(c2ccco2)N(C(=O)c2csnn2)c2cccc(C)c2C)cc1 (configuration not stated)	-3%
13	CN1CCN(C2Cc3ccccc3Sc3ccc(Cl)cc32)CC1 (configuration not stated)	-13%
14	COC(=O)CSc1nnc(CNC(=O)c2cccs2)n1-c1cccc(C)c1	-7%
15	Cc1ccc(S(=O)(=O)N(C)CC(=O)OCC(=O)NC(c2ccccc2)c2ccccc2)cc1	-11%
16	O=C1CN(C(=O)CSc2nncn2-c2ccccc2)c2ccccc2N1	-3%
17	O=C1C(Cc2ccccc2)C(c2ccccc2)N1c1ccccc1 (configuration not stated)	-12%
18	Cc1ccc(S(=O)(=O)NC(C(=O)Oc2ccc3c(C(F)(F)F)cc(=O)oc3c2)c2ccccc2)cc1 (configuration not stated)	?
19	COc1ccc(NC(=O)c2ncn[nH]2)cc1	-15%
20	CC1(O)/C=C\C=C(\CO)C2CC(C)(C)C2(O)CC1 (configuration not stated)	-3%
21	COc1ccc(S(=O)(=O)N(C(=O)C(C)C)c2ccc3oc(=O)sc3c2)cc1	-20%
22	CCC(C)NC(=O)/C=C/c1cccs1 (configuration not stated)	-10%
23	CSc1nc2sc3c(c2c(=O)[nH]1)CCC(C)C3 (configuration not stated)	-6%
24	Cc1ccc(S(=O)(=O)NCc2ccc(C(=O)NCCCN3CCN(C)CC3)cc2)cc1	-5%
25	Nc1ccc(C(=O)OCC(=O)Nc2ccc([N+](=O)[O-])cc2C(F)(F)F)cc1	-8%
26	CSc1ccc(CN(C)CC(=O)NC(=O)NC(C)(C)C)cc1	-8%
27	Cc1nc(-c2coc3cc(O)c(C)cc3c2=O)cs1	?
28	Nc1nncn1C(=O)CCCN1C(=O)c2ccccc2C1=O	-15%
29	COc1cc(/C=c2\sc3n(c2=O)CCCN=3)ccc1O	-14%
30	O=C(O)C1=CCCNC1	-14%&-5%&-2%

# Next part:
cpd	mol	HPGD block
31	O=S(=O)(Nc1ccn(-c2ccccc2)n1)c1ccc(Br)cc1	-22%
32	CNC[C@H](O)[C@H](O)[C@H](O)[C@H](O)CO	-2%
33	Cc1[nH]nc2c1C(c1ccc(F)cc1)C1=C(CC(C)(C)CC1=O)N2 (configuration not stated)	?
34	CCc1ccc(NC(=S)NC2CC3CCCC(C2)N3Cc2cccs2)cc1 (configuration not stated)	-5%
35	CCCNC(=O)NC(C(=O)OC)C12CC3CC(CC(C3)C1)C2 (configuration not stated)	-2%
36	O=c1[nH]c(CN2CCN(c3ccc([N+](=O)[O-])cc3)CC2)nc2ccsc12	-24%
37	Fc1cnc(N2CCOCC2)nc1N1CCc2ccccc21	-6%
38	COc1cc(NC(=O)NCc2ccncc2)cc(OC)c1OC	-3%
39	O=C(/C=C/c1ccco1)Nc1ccc(C(=O)N2CCOCC2)cc1	18µM*
40	CCC(=O)Nc1sc(C(=O)N2CCCCC2)c(C)c1C#N	4.5µM*
41	CCOC(=O)CCCNC(=O)COC(=O)c1cc2ccccc2cc1O	-9%
42	OC(CN1c2ccccc2Sc2ccccc21)Cn1nnc2ccccc21 (configuration not stated)	-23%
43	CCCCNS(=O)(=O)c1ccc(S(=O)(=O)NCc2ccncc2)cc1	2%
44	CCOC(=O)N1CCC(NC(=O)c2cc3ccccn3n2)CC1	-19%
45	COc1ccc(-c2cn3ccccc3n2)cc1[N+](=O)[O-]	-8%
46	O=C(CSc1nc2c(c(=O)n1-c1ccc(F)cc1)SCC2)NCC1CCCO1 (configuration not stated)	-2%
47	CC(OC(=O)c1cccnc1SCc1cc(=O)n2ccccc2n1)c1ccccn1 (configuration not stated)	-15%
48	CCCCCCCCCCCCC/C=C/[C@@H](O)[C@H](CO)NC(=O)CCCCCCC	-14%
49	COC(=O)C(NC(=O)c1ccc(OC)cc1)(Nc1ncc(S(=O)(=O)c2ccc([N+](=O)[O-])cc2)s1)C(F)(F)F (configuration not stated)	16µM*
50	O=C(NCCc1cn2ccccc2n1)c1ccc(Br)o1	-26%
51	COC(=O)CCCC1=CC2=CC(=O)C(C)(OC(=O)c3cccs3)C(=O)C2=CN1CCN1CCOCC1 (configuration not stated)	-7%
52	NC(=O)c1c(NC(=O)CSc2nc3c(c(C(F)(F)F)n2)CCc2ccccc2-3)sc2c1CCCC2	0%
53	O=C(Cn1cncn1)N/N=C/c1cccc2ccccc12	-12%
54	CS(=O)(=O)N1CCC2(CC1)CN(Cc1nccs1)C2	-9%
55	CCn1c(Sc2nc(C)nc3scc(-c4cccs4)c23)n[nH]c1=O	-9%
56	O=C(NCC1CCCO1)c1c(O)c2cccc3c2n(c1=O)CC3 (configuration not stated)	?
57	COC(=O)[C@@]1(Cc2ccc(OC)cc2)[C@@H]2[C@@H](CC(=O)[C@H]2CC(=O)C(=O)N(C)C)CN1C(=O)c1ccccc1	-5%&0%
58	CCOCCCNC(=O)C(NC(=O)c1ccccn1)c1ccc(C)cc1 (configuration not stated)	-7%
59	COc1ccc(-n2nc([N+](=O)[O-])c(=NCCc3ccccc3)n2O)cc1	-7%
60	COc1ccccc1N(CC(=O)NC1CCCCC1)S(C)(=O)=O	-9%

# (further entries)
cpd	mol	HPGD block
61	Cc1ccc(C=Nc2cc([N+](=O)[O-])ccc2C)s1	-18%
62	Cc1cc(NC(=O)CSc2nnc(-c3ccc(S(=O)(=O)N4CCCC4)cc3)n2C)no1	-11%
63	CCN1CCN(C(c2ccc(OC)cc2)C(O)C(=O)c2c[nH]c3ccccc23)CC1 (configuration not stated)	4%
64	COc1cccc(-c2nc3sc4c(c3c(=O)[nH]2)CCCCC4)c1	?
65	CCOC(=O)Nc1sc2c(c1C#N)CCCC2	-15%
66	O=C(O)/C=C/c1ccccc1Oc1ccccc1	0%
67	Cc1cc(N2CCCCC2)nc(SCc2ccc(C#N)cc2)n1	-20%
68	OC1(c2ccc(F)cc2)CN(c2ccccc2)C2=[N+]1CCS2 (configuration not stated)	-8%
69	O=[n+]1c2c(n([O-])c3cc(Br)ccc31)CCCC2	-10%
70	COc1ccc2c(CSc3nnc(-c4cccnc4)n3-c3ccccc3F)cc(=O)oc2c1	6%
71	O=C(NCc1ccccc1)c1nc2c(nnn2Cc2cccc(Cl)c2)c(=O)[nH]1	2.5µM*
72	CCS(=O)(=O)c1ccc(O)c(NC(=O)COc2ccc(C)cc2)c1	-5%
73	Cc1ccc(C(=O)C2(C)C3c4cc(Br)ccc4OC(=O)C32C(=O)c2ccco2)cc1 (configuration not stated)	-10%
74	Oc1ccc(Nc2nc(Cl)nc(NCc3ccco3)n2)cc1	-19%
75	NC(=O)N/N=C1\CC[C@H](O)C[C@@H]1CC(=O)O	-3%
76	CCc1ccc(NC2=NCC(=O)N2Cc2ccc3c(c2)OCO3)cc1	-18%
77	NC(=O)COC(=O)CCCc1c[nH]c2ccccc12	-5%
78	COc1ccc(NC(=O)Cn2nnc(-c3ccccc3N)n2)cc1OC	-10%
79	CCOc1ccccc1NC(=S)/C(=C(\[O-])c1ccc2c(c1)OCCO2)[n+]1ccc(CC)cc1	?
80	CCCCSc1nc2c(c(C(F)(F)F)c1C#N)CCC2	-26%
81	Nn1c(SCc2cn3ccsc3n2)nnc1-c1ccncc1	-20%
82	c1coc(-c2nnc(SCc3nc4ccccc4[nH]3)o2)c1	-5%
83	COc1cc(/C=C(\C#N)c2ccccn2)ccc1OCc1ccccc1	?
84	O=C(Cc1cccs1)Nc1nnc(SCc2ccc(Br)cc2)s1	-7%
85	CC(=O)Nc1cccc(C(=O)/C=C/c2ccco2)c1	?
86	C=CCNC(=S)NNC(=O)c1cccc(Br)c1	-5%
87	O=C(CSc1nc(-c2cccs2)cc(C(F)(F)F)n1)NCCCn1ccnc1	-17%
88	COc1ccc(C2=NN(C(=O)/C=C/c3ccccc3)C(c3ccccc3)C2)c(OC(C)=O)c1 (configuration not stated)	?
89	CCOC(=O)Cn1c(C)nc2ccccc21	-2%
90	Cc1c(C)n(CC(O)CN2C(=O)c3ccccc3S2(=O)=O)c2ccccc12 (configuration not stated)	20µM*

# Fetched by structure from above, two records:
cpd	mol	HPGD block
19	COc1ccc(NC(=O)c2ncn[nH]2)cc1	-15%
45	COc1ccc(-c2cn3ccccc3n2)cc1[N+](=O)[O-]	-8%

# Next section:
cpd	mol	HPGD block
91	S=C(Nc1ccc(Cl)cc1)NC1CCN(Cc2ccccc2)CC1	-4%
92	Cc1ccc(C(=O)CC2(O)C(=O)N(Cc3ccccc3Cl)c3ccccc32)o1 (configuration not stated)	-21%
93	CC(=O)N1[C@@H]2CC3C4CC=C5C[C@@H](O)CC[C@]5(C)C4CC[C@]3(C)[C@@]21C(C)=O (some centres not stated)	1%
94	CCN(CC)CCOC(=O)C1(c2ccc(OC)c(OC)c2)CCCC1	-10%
95	COc1ccc2c(c1)O[C@H](c1ccc3c(c1)OCO3)[C@@H](OC(=O)N[C@H]1CCCc3ccccc31)C2=O	1%&8%
96	Cc1ccc2cc(C#N)c(N3CCCN(C(=O)C4CCCO4)CC3)nc2c1C (configuration not stated)	-23%
97	CC(=O)Nc1ccc(-c2nc3ccc(Cl)cc3[nH]2)cc1	?
98	Brc1ccc(CN2C3=NCCCN3c3ccccc32)cc1	-5%
99	CNC(=O)CN(Cc1ccccc1)S(=O)(=O)c1ccccc1	-3%
100	Cc1ccc(NC2CC(=O)N(CCc3ccccc3)C2=O)cc1 (configuration not stated)	-10%
101	Cc1nc2cc(C(=O)OCC(=O)Nc3ccc(C#N)cc3)ccc2n1-c1ccccc1	?
102	COc1cc(/C=N/n2cnnc2)ccc1OCc1ccccc1	?
103	Cc1cc(C)n(CC(=O)N2N=C(C(F)F)CC2(O)C(F)F)n1 (configuration not stated)	-8%
104	O=C(O)CC1C(=O)NCCN1Cc1ccc(F)c(F)c1 (configuration not stated)	-14%
105	CN1CCc2c(sc3c2C(=O)NC(c2ccc4c(c2)OCO4)N3)C1 (configuration not stated)	-22%
106	C/C=C/c1ccc(OCCCNC)c(OC)c1	-2%
107	COc1cc(/C=N/NC(=O)Nc2ccccc2)ccc1OCCOc1ccccc1C	-17%
108	COc1cccc(/C=N/NC(=O)c2cc(-c3cccn3C)n[nH]2)c1O	-28%
109	CC(Sc1nnc(NC(=O)c2cc3ccccc3oc2=O)s1)c1ccccc1 (configuration not stated)	-13%
110	CCOC(=O)Cc1csc(/N=C/c2c(O)n(-c3ccc(C)cc3C)c(=O)c3ccccc23)n1	-12%
111	O=C(NNS(=O)(=O)c1ccccc1)c1ccncc1	-6%
112	CCOC(=O)C(NC(=O)CC)(Nc1ccc(S(=O)(=O)Nc2onc(C)c2C)cc1)C(F)(F)F (configuration not stated)	-5%
113	OCCN1CCN(CCCN2c3ccccc3C=Cc3ccccc32)CC1	-14%&-16%
114	CNc1nc2[nH]c(=O)c3c(c2s1)OC(N)=C(C#N)C3c1cccc(F)c1 (configuration not stated)	?
115	Cc1ccc(NC(=O)CN(C)Cc2nc3ccccc3c(=O)[nH]2)c(Br)c1	-2%
116	CCOc1cc(C(=O)Nc2ccc3c4c(cccc24)C(=O)N3CC)cc(OCC)c1OCC	-12%
117	COC(=O)C1=C(C)NC(C)=C(C(=O)OCCNCc2ccccc2)C1c1cccc([N+](=O)[O-])c1 (configuration not stated)	-22%
118	Cc1ccccc1S(=O)(=O)Cc1ccc(C(=O)NC(C)c2ccc3c(c2)OCCO3)o1 (configuration not stated)	-20%
119	O=c1[nH]c2ccc(Cl)cc2c(O)c1-c1ccccc1	-9%

# Filtered by structure: the entries above with a thiophene ring, fused or not
cpd	mol	HPGD block
14	COC(=O)CSc1nnc(CNC(=O)c2cccs2)n1-c1cccc(C)c1	-7%
22	CCC(C)NC(=O)/C=C/c1cccs1 (configuration not stated)	-10%
23	CSc1nc2sc3c(c2c(=O)[nH]1)CCC(C)C3 (configuration not stated)	-6%
34	CCc1ccc(NC(=S)NC2CC3CCCC(C2)N3Cc2cccs2)cc1 (configuration not stated)	-5%
36	O=c1[nH]c(CN2CCN(c3ccc([N+](=O)[O-])cc3)CC2)nc2ccsc12	-24%
40	CCC(=O)Nc1sc(C(=O)N2CCCCC2)c(C)c1C#N	4.5µM*
51	COC(=O)CCCC1=CC2=CC(=O)C(C)(OC(=O)c3cccs3)C(=O)C2=CN1CCN1CCOCC1 (configuration not stated)	-7%
52	NC(=O)c1c(NC(=O)CSc2nc3c(c(C(F)(F)F)n2)CCc2ccccc2-3)sc2c1CCCC2	0%
55	CCn1c(Sc2nc(C)nc3scc(-c4cccs4)c23)n[nH]c1=O	-9%
61	Cc1ccc(C=Nc2cc([N+](=O)[O-])ccc2C)s1	-18%
64	COc1cccc(-c2nc3sc4c(c3c(=O)[nH]2)CCCCC4)c1	?
65	CCOC(=O)Nc1sc2c(c1C#N)CCCC2	-15%
84	O=C(Cc1cccs1)Nc1nnc(SCc2ccc(Br)cc2)s1	-7%
87	O=C(CSc1nc(-c2cccs2)cc(C(F)(F)F)n1)NCCCn1ccnc1	-17%
105	CN1CCc2c(sc3c2C(=O)NC(c2ccc4c(c2)OCO4)N3)C1 (configuration not stated)	-22%
